BJeLR viability: BJeLR cell viability loss; BJeLR (HRASV12) viability, CellTiter-Glo ATP luminescence, 48 h; reference of the scale not given here; inhibition, % (test concentration not listed); hit rate 0.17% among 300,000; AID 1554;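 active = replicate mean above 50%; inconclusive = above 50% but judged a plate artefact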;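 also: 50 nL library stock added to about 25 µL; numbers are from one replicate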
Mtb hypoxia inh: Mtb hypoxia fluorescent reporter inhibition. M. tuberculosis hypoxia-regulated fluorescent reporter, fluorescence. AID 1159583. fluorescence inhibition, % (test concentration not listed). hit rate 0.1% among 300,000;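 active = 35 to 45% if threefold the growth effect, above 45% if 1.5-fold the growth effect; inactive = the rest, general growth blockers included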;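 also: wells of about 50 µL received 100 nL stock; 0% = vehicle wells and 100% = reference inhibitor wells; whole bacteria with a GFP reporter of the hypoxia response; strong numbers were not always called active; many hits fall short of the cut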
Sa RN4220 lethal: kills Staphylococcus aureus RN4220; hit rate 0.33% among 330,000; inhibition, % (test concentration not listed); S. aureus RN4220 growth, OD600, 16 h; AID 1259311;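 active = z-score of -3 or lower and OD600 up to 0.18 on both plates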;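 also: plate controls were untreated cells for no effect and reference antibiotic for full effect; stock transfer was 100 nL into about 80 µL; one replicate is shown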
PrP 5UTR inh: inhibition of PrP 5' UTR reporter expression | hit rate 0.35% among 340,000 | cell-based PrP 5' UTR mRNA reporter, plate reader | AID 488862 | inhibition, % (concentration not given with the values);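 active = every replicate at 50% or more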;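 also: 0 = median of the neutral control wells; tested in H4 reporter cells; numbers are from one replicate; inactives centre near -14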
Sa ugtP lethal: compounds lethal to S. aureus RN4220 ugtP deletion mutant. OD600 growth, 16 h; some inactives read as strong as hits. growth inhibition, % (test concentration not listed). hit rate 0.54% among 330,000;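 active = z-score under -3 and OD600 up to 0.15 on both plates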;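 also: plate controls were untreated wells for no effect and antibiotic for full effect; wells of about 80 µL received 100 nL stock; the first replicate is given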
Bead autofluor: counter-screen for toxin protease inhibitors: compound fluorescence. compound autofluorescence counterscreen, microsphere flow cytometry; stronger effect = higher value. fluorescence intensity (concentration not given with the values). hit rate 3.1% among 360,000;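 active = at least 3 SD above the mean of all compounds, about 16000 in these data; inconclusive = too few beads counted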;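 also: 100 nL of 1 mM stock went into each well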
Mtb hypoxia inh growth: further read-out of Mtb hypoxia inh, marked with its call; growth inhibition, %; measured here: M. tuberculosis growth (absorbance);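 0% = vehicle and 100% = reference antibiotic; read after six days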
Numbers without * were called inactive; ? = inconclusive; nt = no result given.

SMILES	BJeLR viability	Mtb hypoxia inh	Mtb hypoxia inh growth	Sa RN4220 lethal	PrP 5UTR inh	Sa ugtP lethal	Bead autofluor
Cc1ccc(N(C(=O)c2nsc(Cl)c2Cl)C(C(=O)NC2CCCC2)c2ccc(O)cc2)cc1C (stereo unspecified)	1.4	3.1	7.4	5.0	-27.1	2.0	2169
COCCn1c(SCC(=O)N2CCCC2=O)nc2sc(C)c(C)c2c1=O	1.4	6.2	4.4	2.9	-9.1	4.9	5656
CNC(=O)[C@@]1(Cc2ccccc2)C=C[C@@H](C)N1C(=O)OC	18.4	nt	nt	nt	-37.6	nt	3459
COc1ccc2c(c1)nc(NCCO)n2C	10.5	-2.4	-7.0	0.2	-71.7	6.4	2083
Cn1c(=O)c2cc(S(=O)(=O)NC(C(=O)N3CCCCCC3)c3ccccc3)ccc2n(C)c1=O (stereo unspecified)	nt	10.0	9.4	3.3	-9.8	1.7	5855
O=C(/C=C\c1cn(-c2ccccc2)nc1-c1cccs1)N1CCOCC1	4.2	-7.0	10.2	11.1	-10.7	-11.3	2001
COc1ccc(-n2nc([N+](=O)[O-])c(=NCCc3ccc(C)cc3)n2O)cc1	-0.7	9.1	-3.1	3.5	-5.7	1.9	2525
Cn1cc(SCC(=O)N2CCN(c3ccccc3)CC2)c2ccccc21	-5.4	3.3	7.2	4.4	-96.0	-5.4	5565
CC1=C(C(=O)OC(C)C)[C@]2(C(=O)N(CC(N)=O)c3ccccc32)C(C#N)=C(N)O1	-11.0	10.3	9.3	5.2	-19.9	-10.3	3013
O=C(Nc1ccc(Cl)cc1)c1ccc(CN2CCc3ccccc3C2)cc1	-1.5	-0.5	10.9	1.0	-40.2	6.8	3220
N#CC[n+]1cc(-c2ccc(Cl)cc2)n2c1CCC2	1.9	10.7	11.7	1.6	nt	5.8	11532
CCCCNC(=O)OC1CCS(=O)(=O)C1 (stereo unspecified)	3.0	nt	nt	1.7	-19.2	4.4	2465
CCN(CC)S(=O)(=O)c1cc(C(=O)OCC(=O)Nc2cccc(S(=O)(=O)N(C)C)c2)ccc1F	2.5	3.0	10.7	8.1	-11.7	5.8	3690
Cc1cccc(NS(=O)(=O)c2cccc(C(=O)NCCCN3CCOCC3)c2)c1	7.6	-7.4	4.4	3.7	-6.6	5.2	5767
O=S1(=O)CCOCC(Cc2ccccc2)N1Cc1ccccc1F (stereo unspecified)	nt	7.9	1.3	10.1	nt	1.0	nt
CCc1ccc(C2CC(c3ccccc3C)n3nc(N)nc3N2)cc1 (stereo unspecified)	2.1	nt	nt	4.5	-18.8	5.9	6232
CN(Cc1ccccc1)C(=O)COc1cccnc1[N+](=O)[O-]	5.8	12.1	12.8	5.2	-8.8	8.2	4120
COc1cc(-c2nc3ccccn3c2/N=C/c2ccccc2)ccc1O	-0.1	nt	nt	nt	-11.8	nt	11105
N#Cc1ccc(C23CC4(C2)C(CN(CC2CCCCC2)C4c2ccccc2)C3c2ccc(C(F)(F)F)cc2)cc1 (stereo unspecified)	nt	-16.5	4.9	-7.1	nt	-7.4	nt
COc1ccc(OC)c(NC(=O)CCN2CCCCC2)c1	-1.2	15.7	4.1	7.8	-15.2	-8.5	4139
COc1cccc(NC(=O)COC(=O)c2ccc(S(=O)(=O)NCc3ccco3)cc2)c1	1.1	4.7	0.1	1.6	-3.2	-8.6	23475*
O=S(=O)(c1cccc(F)c1)N1CCN(Cc2cc3c(cc2Br)OCCO3)CC1	nt	-3.5	0.7	-1.4	-16.4	-3.6	3617
COc1cc(NC(=O)CC(C)=NNC(=O)C(=O)NC2CCCCC2)c(OC)cc1Cl	nt	8.6	1.1	1.3	nt	3.5	nt
CO/N=C/c1cccn1-c1nccc(N(C)C)c1C#N	-0.2	nt	nt	nt	-27.2	nt	4685
Cc1nn(C(C)C(=O)NCc2ccco2)c(C)c1[N+](=O)[O-] (stereo unspecified)	2.1	1.1	1.2	3.6	-16.6	4.0	4595
COc1ccc(-c2nnc(SCC(=O)c3ccc(O)cc3O)o2)cc1	5.8	-4.2	-1.3	12.5	1.9	5.1	3518
CC1CN(CCc2ccccc2)CC(C)O1 (stereo unspecified)	-6.9	3.2	-3.9	3.9	-19.5	21.0	9219
CN(Cc1ccn[nH]1)C(=O)C1CCC(=O)N(Cc2cccc(C(F)(F)F)c2)C1 (stereo unspecified)	-3.9	-5.5	-3.1	1.0	1.6	0.1	5205
O=C(CN1CCN(CCN2C(=O)c3cccc4cccc(c34)C2=O)CC1)c1ccc(F)cc1	4.7	-7.1	11.3	0.9	-6.1	-7.2	22837*
COc1cccc(N(CC(=O)Nc2cccc(N(C)S(C)(=O)=O)c2)S(C)(=O)=O)c1	4.1	-4.3	1.8	2.7	-18.5	2.0	6927

Reformatted: 13 of the compounds above.
Below each compound – BJeLR viability | Mtb hypoxia inh | Mtb hypoxia inh growth | Sa RN4220 lethal | PrP 5UTR inh | Sa ugtP lethal | Bead autofluor
> O=S1(=O)CCOCC(Cc2ccccc2)N1Cc1ccccc1F (stereo unspecified)
→ nt | 7.9 | 1.3 | 10.1 | nt | 1.0 | nt
> CCc1ccc(C2CC(c3ccccc3C)n3nc(N)nc3N2)cc1 (stereo unspecified)
→ 2.1 | nt | nt | 4.5 | -18.8 | 5.9 | 6232
> CN(Cc1ccccc1)C(=O)COc1cccnc1[N+](=O)[O-]
→ 5.8 | 12.1 | 12.8 | 5.2 | -8.8 | 8.2 | 4120
> COc1cc(-c2nc3ccccn3c2/N=C/c2ccccc2)ccc1O
→ -0.1 | nt | nt | nt | -11.8 | nt | 11105
> N#Cc1ccc(C23CC4(C2)C(CN(CC2CCCCC2)C4c2ccccc2)C3c2ccc(C(F)(F)F)cc2)cc1 (stereo unspecified)
→ nt | -16.5 | 4.9 | -7.1 | nt | -7.4 | nt
> COc1ccc(OC)c(NC(=O)CCN2CCCCC2)c1
→ -1.2 | 15.7 | 4.1 | 7.8 | -15.2 | -8.5 | 4139
> COc1cccc(NC(=O)COC(=O)c2ccc(S(=O)(=O)NCc3ccco3)cc2)c1
→ 1.1 | 4.7 | 0.1 | 1.6 | -3.2 | -8.6 | 23475*
> O=S(=O)(c1cccc(F)c1)N1CCN(Cc2cc3c(cc2Br)OCCO3)CC1
→ nt | -3.5 | 0.7 | -1.4 | -16.4 | -3.6 | 3617
> COc1cc(NC(=O)CC(C)=NNC(=O)C(=O)NC2CCCCC2)c(OC)cc1Cl
→ nt | 8.6 | 1.1 | 1.3 | nt | 3.5 | nt
> CO/N=C/c1cccn1-c1nccc(N(C)C)c1C#N
→ -0.2 | nt | nt | nt | -27.2 | nt | 4685
> Cc1nn(C(C)C(=O)NCc2ccco2)c(C)c1[N+](=O)[O-] (stereo unspecified)
→ 2.1 | 1.1 | 1.2 | 3.6 | -16.6 | 4.0 | 4595
> COc1ccc(-c2nnc(SCC(=O)c3ccc(O)cc3O)o2)cc1
→ 5.8 | -4.2 | -1.3 | 12.5 | 1.9 | 5.1 | 3518
> CC1CN(CCc2ccccc2)CC(C)O1 (stereo unspecified)
→ -6.9 | 3.2 | -3.9 | 3.9 | -19.5 | 21.0 | 9219

Further structures.
SMILES	BJeLR viability	Mtb hypoxia inh	Mtb hypoxia inh growth	Sa RN4220 lethal	PrP 5UTR inh	Sa ugtP lethal	Bead autofluor
Cc1ccc(C=C2CCC(C3CCCC3)C2=O)cc1 (stereo unspecified)	nt	1.2	9.6	1.9	nt	9.9	nt
CC(C)(C)c1ccc(OCCCC(=O)NC2=NCCS2)cc1	5.5	nt	nt	11.1	3.2	4.8	2052
Cc1cc(NC(=O)C(C)SCC(=O)N(C)Cc2ccccc2F)no1 (stereo unspecified)	nt	5.0	6.2	5.9	-6.8	0.4	4302
c1ccc(C2CC3CC(c4ccccc4)N2O3)cc1 (stereo unspecified)	-4.2	11.0	10.6	3.5	-26.4	1.5	11125
CC(Sc1ccc2c(c1)OCCO2)C(=O)Nc1ncc(Cl)cc1Cl (stereo unspecified)	-4.5	1.5	4.7	-18.7	-1.2	1.1	?
COC(=O)C1=C(c2cc3ccccc3s2)C[C@@H]2CC[C@H]1N2C(=O)NCc1cccc2ccccc12	-15.7	nt	nt	nt	-14.1	nt	3973
COc1ccc(CCNC(=O)c2nnc(Cc3ccc(Cl)cc3)o2)cc1OC	-4.4	6.6	3.3	4.0	-3.5	-1.8	5975
CCc1nn(C(C)C(=O)Nc2cccc(C)c2C)c(=O)c2cc3occc3n12 (stereo unspecified)	-0.5	11.4	9.4	-6.8	-23.7	-9.2	3053
O=C1c2ccccc2S(=O)(=O)N1CC(O)COc1ccc(Cl)cc1 (stereo unspecified)	-2.6	nt	nt	7.4	-13.7	9.1	3635
COc1ccc(CCNS(=O)(=O)c2ccc(Cl)s2)cc1OC	-2.0	8.9	3.9	7.2	6.3	5.7	4601
O=C(NCCCN1CCc2ccccc2C1)C1CCN(c2nnc(-n3cccc3)s2)CC1	7.0	nt	nt	1.7	-14.2	8.2	6079
CN(C)C(=O)CSc1nc(-c2ccccc2)c(-c2ccccc2)o1	-5.4	11.3	-0.5	5.7	-24.6	20.2	4178
Cc1ccc(OCC(=O)Nc2nnc(S(=O)(=O)N3CCCCCC3)s2)cc1	-7.1	-5.9	4.7	5.7	-0.4	-16.4	5367
O=C(O)CCNC(=O)/C(=C/c1ccco1)NC(=O)c1ccco1	3.3	4.6	11.4	0.4	-38.4	-0.7	3016
Cc1ccc(C)c(N(CC(=O)NCCc2ccccc2)C(=O)CCC(=O)Nc2ccccn2)c1	3.4	7.5	9.1	-1.3	-18.4	10.3	3420
O=S(=O)(c1ccccc1)N(CC1CO1)c1cccc2ccccc12 (stereo unspecified)	-1.9	3.3	8.2	8.3	-40.9	0.4	4138
CCN(CC)S(=O)(=O)c1ccc(C)c(NC(=O)/C=C/c2cccs2)c1	-5.2	-3.0	-5.5	-1.3	-11.6	5.8	2560
O=c1[nH]c2cc(Cl)ccc2c(O)c1-c1cccc(Oc2ccccc2)c1	3.9	-1.9	10.5	-0.5	-0.2	1.3	5955
O=C(Nc1cccc(-c2ccc3nncn3n2)c1)c1ccco1	-0.6	-2.4	4.5	1.8	-11.4	5.8	3217
CCOc1ccccc1C1C(C#N)=C(N)Nc2onc(-c3ccccc3)c21 (stereo unspecified)	-3.1	3.2	7.8	1.4	-9.9	-16.1	2809
COc1ccc(S(=O)(=O)N2CCC(C(=O)NCCC(=O)Nc3cccc(OC)c3)CC2)cc1	7.5	7.0	-10.6	0.7	-7.8	0.0	5962
Cc1ccc(OCCNC(=O)C2CCCCC2)cc1	6.0	4.5	16.1	1.0	-4.3	11.0	2225
O=C1COc2ccc(S(=O)(=O)NCc3ccc(Cl)cc3)cc2N1	3.7	2.4	3.9	5.6	-4.6	7.4	5195
Cc1ccccc1NC(=O)c1cccc(N2C(=O)C3C4CCC(C4)C3C2=O)c1 (stereo unspecified)	-0.1	-3.4	-1.7	-3.2	3.7	-6.7	23697*
COc1ccccc1N1CCN(C(=O)c2ccc(S(=O)(=O)N3CCCCCC3)cc2)CC1	-4.2	nt	nt	1.2	-10.8	1.5	2931
O=C(c1cc(-c2ccncc2)nc2ccc(Br)cc12)N1CCN(c2ccccn2)CC1	-7.6	nt	nt	1.0	-18.3	-3.2	5160
Cc1csc(NC(=O)CSc2nnc(-c3ccncc3)n2C)n1	7.0	-7.8	11.1	-1.4	-2.9	-7.0	10972
COC(=O)COc1ccc(S(=O)(=O)Nc2ccc(C(N)=O)cc2)cc1	5.0	16.4	12.6	2.5	-19.1	-0.7	4230
Cc1ccc(S(=O)(=O)Cn2nnnc2C(C(C)C)N2CCN(Cc3ccco3)CC2)cc1 (stereo unspecified)	-2.4	nt	nt	0.8	-14.5	1.3	4279
CC(C)Cc1nnc(NC(=O)CCC(=O)N2CCN(c3ccccn3)CC2)s1	-3.2	-3.6	-1.1	2.6	-5.0	9.2	nt
CCC(=O)Nc1cccc(NC(=O)c2ccc(C)cc2Cl)c1	-19.0	15.7	5.2	1.0	-19.6	2.3	4866
COc1ccc(CSc2nnc(C)s2)cc1F	-3.5	-1.6	-7.7	-2.1	-58.4	3.0	5445
O=C1c2cc(S(=O)(=O)NCCO)ccc2-c2ccc(S(=O)(=O)NCCO)cc21	-2.7	9.8	1.5	0.4	-17.7	-0.4	4544
O=C(CSc1nnc(-c2ccccc2)n1Cc1ccccc1)N1CCCC1	-17.6	8.9	10.3	4.6	-3.5	-6.3	3489
Cc1ccccc1C(=O)Nc1c(C(=O)N2CCN(C)CC2)cnn1-c1ccccc1	1.4	9.5	3.4	6.1	-8.5	6.5	4761

Compounds were not picked by outcome; about 4% have a hit in one of these screens.
